Screens as filed in PubChem BioAssay.
Beta2AR agonist: beta2AR agonists driving receptor internalization, primary screen, cell-based, FAP fluorogen, flow cytometry; Am2.2-beta2AR cells; reference of the scale not given here; AID 504454, 2011; hit rate 0.43% among 340,000; Beta-2 adrenergic receptor (Homo sapiens), P07550; response, % (concentration not given with the values);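 active = response above a set limit, near 3 SD of response in nonfluorescent compounds, cut at about 42% in these data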;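 note: stock transfer was 100 nL into about 11 µL; a reference agonist was the positive control; negative values mostly stem from fluorescent compounds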
Target sequence (P07550 whole entry, looked up): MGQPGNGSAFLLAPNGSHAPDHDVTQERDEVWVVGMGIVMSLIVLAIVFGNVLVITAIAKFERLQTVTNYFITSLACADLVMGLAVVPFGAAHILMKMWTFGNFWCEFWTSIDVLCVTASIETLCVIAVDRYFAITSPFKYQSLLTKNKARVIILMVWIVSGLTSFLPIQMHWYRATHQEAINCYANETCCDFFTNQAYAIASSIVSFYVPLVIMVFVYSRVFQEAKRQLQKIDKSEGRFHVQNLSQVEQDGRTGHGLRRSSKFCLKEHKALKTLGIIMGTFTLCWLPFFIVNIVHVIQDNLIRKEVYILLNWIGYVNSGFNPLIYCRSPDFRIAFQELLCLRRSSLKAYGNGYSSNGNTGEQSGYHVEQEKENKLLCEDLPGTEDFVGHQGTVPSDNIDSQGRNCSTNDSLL
A1 inh: caspase 3/7 activation in MEF A1-2A-BIM cells, primary screen, A1 inhibitor project, cell-based, luminescence, HTS; AID 2462, 2010; caspase activation, % (no concentration beside the values); hit rate 0.066% among 330,000; Caspase-Glo 3/7 luminescence, 3 h; percent of clofoctol response, vehicle zero;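 active = over half of replicate activation scores above 10%, or exactly half above 10 with the replicate mean above 10; inconclusive = replicate mean below 10 yet half the replicates above 10; inactive = over half of replicates below 10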;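 note: wells of about 30 µL received 50 nL stock; many hits fall short of the cut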
LANA-H2A inh: blockers of LANA interaction with H2A/H2B – biochemical, FP readout, HTS, primary screen. Protein LANA1 (Human herpesvirus 8 type P (isolate GK18)), Q9QR71. cell-free LANA-H2A/H2B peptide, fluorescence polarization. inhibition, % (concentration not given with the values). hit rate 0.6% among 320,000; in the data active = inhibition mostly above about 10%, no sharp cut-off; inactive = mostly below about 6.7%;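 note: stock transfer was 7.5 nL into about 10 µL; 0% = median of vehicle wells and 100% = median of positive control wells; one replicate is shown; the record names a cut of 25% in any replicate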
Beta apoptosis: inhibitors of cytokine-induced beta cell apoptosis, primary screen, luminescence | INS-1E cytokine-induced death, ATP luminescence, 48 h; percent of positive-control rescue, neutral wells zero | protection from apoptosis, % (test concentration not listed) | hit rate 0.8% among 300,000 | AID 435005, 2010;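 active = all replicates at 75% or more, or half of them and the mean; inconclusive = half reach 75% but not the mean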;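 note: 0% = cytokine-treated negative control wells and 100% = positive control rescue; higher means more ATP so stronger rescue from cytokine killing; wells of about 40 µL received 100 nL stock; the first replicate is given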
rRNA inh HTS: reduced GFP signal of wild-type E. coli, primary screen, bacterial rRNA inhibitor project, GFP/RFP fluorescence, OD600, single point; E. coli WT GFP vs humanized-ribosome RFP mutants, 24 h; hits give low values; DMSO median 0, no signal -100; GFP signal change (wild-type ribosome), % (test concentration not listed); hit rate 1.6% among 350,000;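 active = significant combined selectivity score with lowered wild-type GFP, culture density cut under 30%, mutant RFP and density less affected; inactive = any of these conditions unmet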; note: one replicate is shown; some compounds called inactive have numbers as strong as hits
Calb FLC: C. albicans growth inhibition with fluconazole, primary screen, CaCi-2 strain, Alamar Blue fluorescence | C. albicans CaCi-2 (fluconazole-resistant clinical isolate) + fluconazole, 48 h | growth inhibition, % (test concentration not listed) | hit rate 0.57% among 300,000 | AID 1979, 2009;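 active = most replicates above 75%; inconclusive = exactly half above 75%; inactive = most below 75%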;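 note: all wells also contain fluconazole at 8 µg/ml as a sub-toxic cotreatment; 0% = median of DMSO wells and 100% = median of geldanamycin control wells; wells of about 8 µL received 7.5 nL stock; the first replicate is given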
T cruzi inh: inhibitors of intracellular T. cruzi growth, primary screen, luminescence, NIH3T3 host cells. hit rate 1.4% among 300,000. inhibition, % (test concentration not listed). T. cruzi beta-gal in NIH3T3, 90 h. AID 1885, 2009;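 active = mean inhibition across valid replicates above about 55%, limit read from the data; inconclusive = mean below that limit but half or more replicates reach it; inactive = mean below it, under half of replicates reach it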;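 note: signal also drops with host cell toxicity which is not excluded here; 0% = plate median of DMSO wells and 100% = zero luminescence signal; higher percent means less beta-gal luminescence so fewer parasites; stock transfer was 50 nL into about 50 µL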
ALR inh: inhibitors of human ALR sulfhydryl oxidase, primary screen, biochemical, H2O2 detection, HRP-luminol luminescence, single point | FAD-linked sulfhydryl oxidase ALR (Homo sapiens), P55789 | purified ALR, DTT oxidation | inhibition, % (concentration not given with the values) | hit rate 3.8% among 290,000 | AID 485317, 2010;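 active = mean and each replicate at 75% or more; inconclusive = only one of the two met; inactive = neither met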;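 note: stock transfer was 7.5 nL into about 7.5 µL; 0% = neutral wells and 100% = wells with inactivated enzyme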
Target sequence (P55789 whole entry, looked up): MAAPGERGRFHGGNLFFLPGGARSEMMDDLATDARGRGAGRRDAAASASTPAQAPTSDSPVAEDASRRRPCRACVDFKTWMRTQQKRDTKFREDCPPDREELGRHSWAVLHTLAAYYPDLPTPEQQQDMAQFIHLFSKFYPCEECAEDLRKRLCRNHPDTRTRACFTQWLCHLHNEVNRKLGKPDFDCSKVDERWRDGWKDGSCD
rRNA inh HTS OD600: second read-out of rRNA inh HTS, no call of its own (marks repeat the call); OD600 change, %; measured here: OD600 growth;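 optical density of the mix in the first replicate; 0 = DMSO median and -100 = no signal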
rRNA inh HTS RFP: further read-out of rRNA inh HTS, marked with its call; RFP signal change, %; measured here: RFP humanized mutant strains;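 first replicate; 0 = DMSO median and -100 = no signal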
* = called active by the depositor; ? = inconclusive; . = no result given; & = joins results of further samples. This is a subset; the hit share may differ from the screen's.

No. | molecule | A1 inh | T cruzi inh | Calb FLC | rRNA inh HTS | Beta2AR agonist | rRNA inh HTS RFP | LANA-H2A inh | ALR inh | rRNA inh HTS OD600 | Beta apoptosis
1 | O=C(COc1cccnc1[N+](=O)[O-])Nc1ccc(S(=O)(=O)N2CCOCC2)cc1 | 0.8 | 35 | 2 | -18 | 0 | -5.3 | -4.5 | -10 | -31 | 2
2 | COC(=O)C(C(=O)OC)=C(/C=C/C=C/N(C)C)N(C)C | 0.0 | 10 | 1 | . | 19 | . | 4.0 | 13 | . | 8
3 | O=C(Nc1ccc(S(=O)(=O)N2CCOCC2)cc1)c1ccc([N+](=O)[O-])o1 | 0.8 | 44 | 5 | -24* | 14 | -8.3* | 0.4 | -43 | -8.9* | 68
4 | Cc1c(NC(=O)C(C)n2cc([N+](=O)[O-])cn2)c(=O)n(-c2ccccc2)n1C (stereo not drawn) | 0.8 | 0 | 24 | 2 | -2 | 2.0 | -1.6 | . | 5 | 3
5 | Cc1ccc(C(=O)NCCN2CCOCC2)cc1Cl | 0.2 | -11 | -4 | . | -4 | . | 6.9 | -7 | . | 0
6 | Brc1ccc(CNCC2CCCO2)cc1 (stereo not drawn) | -2.3 | -9 | 9 | 1 | -1 | -1.8 | -10 | 1 | 11 | 0
7 | CC1=CC=CN2C1=NC(=O)CC2(C)C(=O)N(CC(=O)NC1CCCC1)c1cc(C)cc(C)c1 (stereo not drawn) | -0.1 | 1 | -6 | 8 | -2 | -1.4 | -3.3 | -22 | 6 | -3
8 | Cc1nn(C)c(C)c1NC(=O)CCSc1nc(-c2ccco2)cc(C(F)(F)F)n1 | 0.0 | -12 | 4 | . | -2 | . | -1.7 | 5 | . | 5
9 | Nc1ncnc2c1ncn2[C@@H]1O[C@H](CNCc2ccccc2OCC(=O)N2CCCCC2)[C@@H](O)[C@H]1O | -1.3 | . | . | 15 | -4 | -0.5 | -0.6 | . | 7 | 2
10 | COc1ccc(/C=N/NC(N)=S)cc1OC(=O)c1cccc2ccccc12 | -0.2 | ? | ? | . | 7 | . | -2.7 | -4 | . | 17
11 | CS(=O)(=O)N(CC(=O)NCCSC1CCCCC1)c1cccc(F)c1 | 0.2 | -2 | -4 | 5 | -4 | 1.0 | 3.0 | -17 | -14 | -1
12 | CCc1ccc(OCC(=O)NC(NC(=S)Nc2ccccc2C)C(Cl)(Cl)Cl)cc1 (stereo not drawn) | -0.9 | 55* | 4 | -17 | -2 | -3.4 | 1.2 | 0 | -22 | 8
13 | CCCC(C(=O)NC1CCCC1)N(C(=O)Cn1nnc(-c2ccc(C)o2)n1)C1CCCC1 (stereo not drawn) | -0.8 | 13 | 4 | -2 | 2 | -7.4 | -9.3 | -7 | -5 | -2
14 | CCN(CC)CCn1c2c(c(SCC(=O)Nc3ccccc3Cl)nc1=O)CCC2 | -0.4 | 13 | -10 | 9 | -3 | -0.5 | -3.6 | 44 | 13 | .
15 | C=CCNc1nnc(-c2ccncc2)s1 | 0.4 | -5 | -3 | . | -2 | . | -4.2 | 4 | . | -4
16 | CC(=O)Nc1ccc(SCC(=O)N(CCC#N)c2cc(C)cc(C)c2)cc1 | 0.2 | 12 | -6 | . | 16 | . | 5.9 | 98* | . | 1
17 | COc1ccccc1-n1c(CNC(=O)c2cccs2)n[nH]c1=S | -0.2 | -6 | 11 | 11 | -4 | -1.0 | -0.1 | 39 | 9 | .
18 | CCCc1cc(=O)[nH]c(SCC(=O)CSc2nc(CCC)cc(=O)[nH]2)n1 | -0.8 | -15 | ? | 6 | 0 | 0.1 | -2.3 | 71 | 5 | -13
19 | CCN1CCN(c2ccc(N3CCN(C(=O)c4ccc(Br)o4)CC3)nn2)CC1 | 0.3 | 21 | 0 | 2 | -3 | -0.2 | 1.8 | . | 8 | .
20 | O=C(O)c1ccc2c(c1)C(=O)N(CCCCCCCN1C(=O)c3ccc(C(=O)O)cc3C1=O)C2=O | -0.1 | 7 | 6 | -9 | 1 | -3.9 | -2.3 | . | -5 | -3
21 | CCN(c1cccc(C)c1)S(=O)(=O)c1cccc(C(=O)O)c1 | 1.6 | -13 | -2 | . | -8 | . | 2.8 | -2 | . | -10
22 | CC1CCCCC1NC(=O)COC(=O)c1ccc2c(c1Cl)C(=O)c1ccccc1C2=O (stereo not drawn) | -1.1 | 11 | 19 | -22 | -9 | -1.8 | -3.8 | -12 | -25 | 6
23 | CC(NC(=O)c1ccccc1F)c1nnc(SCC(=O)N2CCN(c3ccccc3)CC2)n1C (stereo not drawn) | -0.3 | 7 | -9 | 4 | -6 | 2.0 | 0.5 | 19 | 10 | 3
24 | COc1ccc(NC(=O)COc2ccc3c(C)cc(=O)oc3c2)cc1S(=O)(=O)N1CCCCC1 | 0.1 | 9 | 7 | 8 | -13 | 1.9 | . | . | 12 | 1
25 | O=C(Nc1ccccc1)Nc1nc(-c2ccc(Cl)cc2)cs1 | 0.1 | 3 | -3 | -18* | -8 | 4.8* | -6.8 | -11 | 2.3* | -6
26 | CCCCNCCOCCOc1ccccc1-c1ccccc1 | 1.1 | 7 | -25 | . | 4 | . | -1.1 | -17 | . | -4
27 | C=CCNC(=S)NNC(=O)c1ccc(=O)n(Cc2ccc(Cl)cc2Cl)c1 | -0.1 | 4 | 0 | 12 | -6 | 0.2 | 5.8 | 13 | 7 | .
28 | COc1ccc(-n2c(=O)c3c4c(sc3n(CC(=O)NC3CCCC3)c2=O)CCCC4)c(OC)c1 | 1.8 | -1 | 3 | 2 | -21 | 3.6 | 0.6 | -24 | 7 | -4
29 | O=C(N/C(=C/C=C/c1ccccc1)C(=O)N1CCCCC1)c1ccc([N+](=O)[O-])cc1 | 0.4 | 21 | -11 | 2 | -4 | -0.2 | 4.9 | -4 | -7 | 8
30 | COc1ccc(CNc2nc(NCc3ccc(OC)cc3)c3ncn(C4CCCC4)c3n2)cc1 | -0.1 | . | . | . | 6 | . | 2.2 | 2 | . | -10
31 | COC(=O)C1CCN(C(=O)COc2ccc(S(=O)(=O)N3CCOCC3)cc2Cl)CC1 | 0.5 | . | . | 0 | 13 | 0.8 | 2.6 | -4 | 4 | 3
32 | COc1ccc(OC)c(NC(=S)N(CCc2c(C)[nH]c3ccc(C)cc23)Cc2cccs2)c1 | -0.6 | 47 | -4 | 4 | 6 | 1.6 | -1.5 | . | 1 | 0
33 | O=C(c1cccc(S(=O)(=O)N2CCN(c3ccccc3)CC2)c1)N1CCCC(C(F)(F)F)C1 (stereo not drawn) | -0.4 | 6 | -13 | -6 | -3 | -2.6 | -2.7 | 2 | -3 | 34
34 | Cc1ccccc1-n1c(-c2ccc(Br)o2)n[nH]c1=S | 0.2 | 27 | -1 | -7 | 3 | 5.3 | 1.4 | 47 | 4 | 0
35 | CCc1ccc2c(c1)/C(=N/N(C)C(=S)NC)C(=O)N2 | -0.1 | -1 | 26 | . | 5 | . | 3.2 | 6 | . | -17
36 | Cc1ccc(C(=O)NNC(=O)c2cccnc2SCc2cccc([N+](=O)[O-])c2)cc1 | 0.5 | 13 | 2 | . | 7 | . | -3.9 | 0 | . | 4
37 | C/C(=N\NC(=O)c1[nH]c2c([N+](=O)[O-])cc(C)cc2c1-c1ccccc1)c1cccnc1 | 0.8 | 20 | 9 | . | -6 | . | -3.4 | . | . | -2
38 | Cc1ccc(NC(=O)CSCC(=O)Nc2ccccc2N2CCCC2)cc1 | 0.5 | 8 | 4 | -15 | 12 | -0.8 | -3.7 | 99* | -21 | -15
39 | CCOC(=O)c1c(C)nc2c(c1-c1cc(OC)ccc1OC)C(=O)CC(C)(C)C2 | -0.4 | 6 | -2 | . | 4 | . | -1.6 | -4 | . | -3
40 | COc1ccccc1N1CCN(CC(=O)Nc2cc(F)ccc2C)CC1 | -0.2 | 0 | 23 | . | -3 | . | -1.7 | 6 | . | -7
41 | CC(C)NC(=O)Nc1cccc2c1O[C@H](CN(C)C(=O)Nc1ccccc1)[C@@H](C)CN([C@H](C)CO)C2=O | 2.2 | . | . | 3&2 | -1 | -4.1&-6.4 | -2.0 | -1 | 15&7 | -2
42 | CC(=O)Nc1ccc(NC(=O)/C=C/c2ccc(Cl)cc2)cc1 | 0.6 | -17 | 5 | 11 | 4 | 0.4 | 3.3 | -1 | 3 | 5
43 | CC1(C)SCC(C(=O)O)NC1=O (stereo not drawn) | -0.9 | -8 | -13 | 22 | -5 | 7.4 | 2.8 | 2 | 16 | -5
44 | CC(Cc1ccccc1)C(=O)NCc1ccncc1 (stereo not drawn) | -0.5 | 4 | -13 | 1 | 2 | 0.4 | 2.4 | -2 | 12 | -6
45 | COc1cccc(-c2ccc3nnc(SCC(=O)Nc4ccc(NC(C)=O)cc4)n3n2)c1 | 0.5 | 3 | -1 | 5 | 20 | 2.4 | -0.7 | 0 | 8 | -2
46 | COc1ccc(OCC(=O)Nc2cc(-c3nn(C)c(=O)c4ccccc34)ccc2N2CCOCC2)cc1 | -0.5 | 2 | -5 | 10 | 9 | 3.6 | 2.3 | -18 | 14 | -15
47 | C/C(=N\Nc1nc(N2CCCCCC2)nc(N2CCCCCC2)n1)c1ccccc1 | -0.6 | 35 | 7 | . | 18 | . | 1.4 | -4 | . | 1
48 | COC(=O)c1cccc(C(=O)N2CCCC(C(=O)c3cccc(OC(C)C)c3)C2)c1 (stereo not drawn) | 0.9 | 14 | 2 | 4 | -6 | 0.5 | -3.3 | 1 | 7 | -4
49 | Cc1csc(NC(=O)C2=COCCO2)n1 | 0.2 | -8 | -2 | 4 | -4 | -0.7 | -0.8 | 1 | 4 | .
50 | O=C(NCc1cccc(C(F)(F)F)c1)C1CCC(=O)N(C2CCCCCC2)C1 (stereo not drawn) | -0.3 | 6 | -3 | -4 | -2 | -1.6 | 2.2 | -1 | -10 | 0
51 | CC(NC(=O)CN1CCN(Cc2ccc(Cl)cc2)C1=O)c1ccc2c(c1)OCCO2 (stereo not drawn) | 0.0 | 4 | -5 | -5 | 8 | -2.7 | 1.3 | -1 | -9 | 1
52 | O=C(O)/C=C\C(=O)NCc1cccnc1 | 1.1 | -4 | -5 | . | 6 | . | 4.9 | -2 | . | -10
53 | CC(NS(=O)(=O)c1ccc(OCC(=O)NCc2ccncc2)cc1)c1ccccc1 (stereo not drawn) | 0.0 | -7 | 4 | 6 | 4 | -3.0 | 0.8 | 1 | 10 | 1
54 | Cc1c(C(=O)N2CCN(Cc3ccccc3)CC2)sc2ncnc(N3CCOCC3)c12 | 0.7 | 25 | 0 | . | -5 | . | -1.3 | 0 | . | -6
55 | Cc1c2cnn(CC(=O)Nc3cccc(C(F)(F)F)c3)c(=O)c2c(C)n1Cc1ccccc1F | 0.3 | -8 | -9 | . | 25 | . | -1.9 | 1 | . | -3
